KSHV LANA nucl: LANA-nucleosome interaction inhibition; 51,000 compounds, 0.3% hits; z-score (test concentration not listed); AID 720717; FITC-LANA1-23 / chicken nucleosome fluorescence polarization; hits give low values;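 active = both repeat wells score below -2 in polarization z-score versus plate sample wells, excluding overly bright wells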;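 note: 100 nL library stock added to about 30 µL; numbers are from one replicate; some results filed as inactive read as strong as hits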
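System – purified chicken nucleosomes with FITC-labelled LANA N-terminal peptide (1-23) · Amount – 240 nM purified chicken nucleosomes (480 nM peptide binding sites), final · Also added – 50 nM FITC-LANA1-23 probe · Medium – TEN-BT buffer, pH 7.5 · Incubation – compound with peptide–nucleosome mix 10–45 min at room temperature · Detection – fluorescence polarization, ex 480 nm, em 535 nm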
Ab BasE inh: blocks the Acinetobacter baumannii siderophore enzyme BasE. AID 485350. inhibition, % (concentration not given with the values). 84,000 compounds, 0.1% hits. purified BasE, fluorescence polarization binding displacement;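 active = both replicates above 25% with normal brightness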;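 note: 0% = negative plate control signal and 100% = positive plate control signal; stock transfer was 100 nL into about 30 µL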
Starred values were filed as active, the others as inactive; nt = not tested or not shown; & = joins results of further samples.

Preview, five compounds:
SMILES | KSHV LANA nucl | Ab BasE inh
CN1C(=O)c2ccccc2N2C(=O)CCC12C(=O)OCN1C(=O)c2ccccc2C1=O (stereo not given) | nt | 0.4
Cc1cc(OCC(=O)O)no1 | nt | 2.0
CC(C)NC(=O)CCSc1nc(-c2ccco2)cc(C(F)(F)F)n1 | -0.074 | 1.2
CCCCNC(=O)Nc1cc(C(F)(F)F)c[nH]c1=O | nt | -1.0
CCN(CC)c1ccc(C(=O)c2ccccc2C)cc1 | -1.4 | 1.6

All compounds of this part, previewed entries included:
SMILES | KSHV LANA nucl | Ab BasE inh
CN1C(=O)c2ccccc2N2C(=O)CCC12C(=O)OCN1C(=O)c2ccccc2C1=O (stereo not given) | nt | 0.4
Cc1cc(OCC(=O)O)no1 | nt | 2.0
CC(C)NC(=O)CCSc1nc(-c2ccco2)cc(C(F)(F)F)n1 | -0.074 | 1.2
CCCCNC(=O)Nc1cc(C(F)(F)F)c[nH]c1=O | nt | -1.0
CCN(CC)c1ccc(C(=O)c2ccccc2C)cc1 | -1.4 | 1.6
CC(=O)NC(c1ccccc1)c1cccnc1 (stereo not given) | -0.73 | 2.9
CC(C(=O)NC1CC1)N1CCC(N2CCCCC2)CC1 (stereo not given) | -0.4 | 1.5
COc1cc(C(=O)OCC(=O)NC2C3CC4CC(C3)CC2C4)cc2c1OCCO2 (stereo not given) | nt | -0.2
Cc1cccc(-n2ncc3c(Nc4ccc(-c5ccccc5)cc4)ncnc32)c1 | nt | 2.2
O=C(NCc1ccccc1Cl)C1CCN(S(=O)(=O)N2CCCCC2)CC1 | -0.68 | 0.9
O=C(O)Cc1sc(-c2ccccc2)nc1-c1ccccc1 | -0.045 | nt
Cc1cc(C)c(C(=O)O)c(N)n1 | -0.58 | nt
CCc1ccc(S(=O)(=O)/N=C2\C=CC(=O)c3ccccc32)cc1 | nt | 1.0
COC(=O)c1cc(Br)c(-n2cccc2)cc1OC | 0.13 | nt
CCN(CC)S(=O)(=O)c1cccc(C(=O)N2CCCC2=C(C#N)C#N)c1 | nt | 1.1
NCCCOCc1ccco1 | nt | -4.9
COc1ccc(OC)c(CCNC(=O)Cn2ncc3c(=O)oc4ccc(C)cc4c32)c1 | -0.46 | 0.6
O=c1[nH]nc(SCc2ccc(Cl)cc2)c(=O)[nH]1 | -0.5 | 0.6
O=C(CP(=O)(c1ccccc1)c1ccccc1)N1CCCCC1 | -0.07 | -2.1
O=S(=O)(c1ccc(F)c(F)c1F)N1CCN(C(=S)NC2CC3CCC2C3)CC1 (stereo not given) | nt | -1.4
COc1ccc(C2CC(c3ccc4ccccc4c3)=NN2C(=O)Cn2cnnc2C#N)cc1 (stereo not given) | nt | 0.9
S=C(NC1CCCC1)NN1CCOCC1 | -0.17 | 1.5
CC(O/N=C/c1ccc2c(c1)OCO2)C(=O)N1CCc2ccccc21 (stereo not given) | nt | 1.8
COc1cc2[nH]c(=O)c(C(=O)NC3CCCC3)c(O)c2cc1OC | 1.6 | -4.6
CNC1c2cccc(OC)c2OCC1CO (stereo not given) | 2.1 | nt
c1csc(-c2nnc(SCc3cscn3)n2C2CC2)c1 | nt | 1.6
CCOC(=O)/C(C#N)=C/c1ccc2c(c1)c1ccccc1n2CC | -0.62 | -1.2
O=C(NCc1cccs1)C1C2C=CC3(CN(CCCN4CCOCC4)C(=O)C13)O2 (stereo not given) | 1.3 | 0.2
Cc1nn(-c2ccccc2)c2sc(C(=O)N=Nc3[nH]c(N)c4ccccc34)cc12 | nt | -1.9
O=C(OCCNc1ncc(C(F)(F)F)cc1Cl)C1CCC1 | nt | 1.4
CCOC(=O)C1CCN(c2ccc(-c3cccs3)nn2)CC1 | -1.3 | -3.3
O=C(OCc1cnc(Cl)s1)c1cccc(Cl)c1 | -0.94 | nt
Cc1ccccc1N(C(=O)c1cccs1)c1nc2ccccc2s1 | nt | 0.0
COc1ccccc1C1OC(=O)C[C@H]1C(=O)Oc1cccc(C(F)(F)F)c1 (stereo not given in full) | nt | -0.4
C=CC1OCC2(CO1)C(C)C=C(C)CC2C (stereo not given) | -0.54 | 1.6
CC(C)C1N(C(=O)CN2CCN(C)CC2)CCCN1S(=O)(=O)c1ccccc1 (stereo not given) | 0.3 | 1.3
O=C1c2ccccc2C2(CCCC2)C(=O)N1Cc1ccccc1 | -1.1 | nt
Cc1cc(C)n(-c2ccnc3cc(Cl)ccc23)n1 | -0.72 | nt
Cn1cccc1C(=S)NC(=O)Nc1ccccc1Cl | nt | 2.4
CCOC(=O)c1cc2sccc2n1CC(=O)OC | -1.1 | -2.9
C=C/C=C(\C=C(C)C)N(C(=O)NC1CCCCC1)C1=NCCCS1 | 2.7 | -2.8
CC(C)NC(=S)N/N=C/c1ccc(N2CCOCC2)cc1 | nt | 3.1
Cc1ccc(CNCc2ccc(C(=O)O)s2)cc1 | -0.68 | 2.2
COc1ccc(O)c(C(=O)c2cc(C#N)c(=O)n(C(C)C)c2)c1 | nt | 0.1
CN(C)c1ccc(/C=C(/NC(=O)c2ccccc2)C(N)=O)cc1 | -0.83 | 4.6
CC(c1ccccc1)n1cc(C(=O)NCCCN2CCCC2=O)nn1 (stereo not given) | -1.4 | 1.0
COc1cccc(CNC(=O)CCCc2cccs2)c1 | nt | 0.3
CCOC(=O)c1sc(N)c(C#N)c1CSc1nnc(Nc2c(C)cccc2C)s1 | nt | -3.5
O=C(c1cc2c(Cl)ccc3c2n1CCO3)N1CCc2ccccc2C1 | 0.55 | -1.1
Oc1cccc(C(O)CNc2c3c(nc4cc(-c5cccc(F)c5)nn24)CCC3)c1 (stereo not given) | 1.4 | -4.6
CC1(C)CC(=O)C2=C(C1)N(Cc1ccco1)C(=O)C2(NC(=O)c1cccs1)C(F)(F)F (stereo not given) | 0.22 | -2.1
O=P1(O)C=C(c2ccccc2)NC(c2ccccc2)=C1 | nt | 1.4
CCCCC(CC)C1OCC(CN2CCCC2)O1 (stereo not given) | -0.33 | -1.2
Cc1cc(-c2ccc(C(=O)O)s2)c[nH]c1=O | -1.1 | 1.0
CCn1cc(/C=N/NC(=O)Cc2ccc3c(c2)OCCO3)c2ccccc21 | nt | -5.2
c1ccc(-c2ccc(COc3ccc(-c4nnco4)cc3)cc2)cc1 | nt | -1.2
CCCN1CCC(NC(=O)Nc2cc(C)ccc2C)CC1 | -0.8 | 3.3
CC(C)(C)NC(=O)N1CCC(C(=O)O)CC1 | -0.58 | 3.0
Nc1cc(N)nc(SCCN2CCOCC2)n1 | 0.57 | -0.7
CC(=O)Nc1cccc(C(=O)O)c1 | 0.29 | -1.9

4 entries from above, in CSV form:
SMILES,KSHV LANA nucl,Ab BasE inh
CCOC(=O)c1sc(N)c(C#N)c1CSc1nnc(Nc2c(C)cccc2C)s1,nt,-3.5
O=C(c1cc2c(Cl)ccc3c2n1CCO3)N1CCc2ccccc2C1,0.55,-1.1
Oc1cccc(C(O)CNc2c3c(nc4cc(-c5cccc(F)c5)nn24)CCC3)c1 (stereo not given),1.4,-4.6
CC1(C)CC(=O)C2=C(C1)N(Cc1ccco1)C(=O)C2(NC(=O)c1cccs1)C(F)(F)F (stereo not given),0.22,-2.1

The list continues:
SMILES | KSHV LANA nucl | Ab BasE inh
COCCNc1nc(-c2cccs2)cs1 | nt | -1.4
C1CCC(OCCN2CCN(CCOC3CCCCC3)CC2)CC1 | 1.3 | 1.6
CCN(CC)c1nc(NCC(=O)O)nc(NCC(=O)O)n1 | -1.4 | 1.6
O=C(CCc1ccc(S(=O)(=O)N2CCOCC2)cc1)NCc1ccncc1 | nt | 7.5
Cc1ccc(-c2nnn(CC(=O)N(Cc3cccs3)C(C(=O)NCC3CCCO3)c3ccc(F)cc3)n2)o1 (stereo not given) | -0.95 | 1.1
O=C1c2ccccc2C(=O)N1CN(Cc1ccccc1)CN1C(=O)c2ccccc2C1=O | 0.052 | -0.6
COc1nccn(-c2ccccc2)c1=O | -0.45 | 1.6
O=C(Nc1nc2ccccc2s1)c1cnccc1C(F)(F)F | nt | -0.3
CCOc1ccc(C(=O)CSc2nc3c(c(=O)n(C)c(=O)n3C)n2C(C)C)cc1 | 0.87 | -1.5
O=C(CN1CCc2ccccc2C1)c1ccc(OC(F)F)cc1 | nt | -2.2
Cc1nnc(SCc2ccco2)c2c1nnn2Cc1ccc(F)cc1 | 0.75 | 0.2
O=C1CC2(CCCC2)C(=O)N1C1CCN(c2ncc(C(F)(F)F)cc2Cl)CC1 | nt | 0.6
O=C1c2ccccc2CN1Cc1ccccc1 | 0.2 | nt
Oc1ccccc1CN1CCN(Cc2ccccc2O)C1c1ccco1 | nt | 1.5
O=c1sc2c(n1-c1ccccc1)SCC1COc3ccccc3C21 (stereo not given) | nt | -0.7
CCn1c(C)cc(O)c(C(c2cccc(OC)c2)N2CCN(c3ccc(F)cc3)CC2)c1=O (stereo not given) | 0.42 | 2.0
CCCCn1c(=N)n(CC(=O)OCC)c2ccccc21 | -0.53 | 1.7
C#CCn1c(O)c(N=NC(=O)c2cc(OC)c(OC)c(OC)c2)c2ccccc21 | 0.15 | -2.3
COc1cc(C#N)ccc1OCC(=O)NC1CCCCC1C (stereo not given) | nt | -1.4
O=S(=O)(NCc1nc(-c2ccccc2)no1)c1ccc(Cl)cc1 | -0.38 | 2.4
CCc1ccccc1N1C(=O)CC(N2CCc3ccccc32)C1=O (stereo not given) | 0.041 | -2.6
CCOC(=O)c1ccc(N2CN(CC)CNC2=S)cc1 | -0.74 | 1.7
CC1C/C(=N/N=c2\sc3ccccc3n2C)CC(C)(C)C1 (stereo not given) | nt | 0.7
CN(C)S(=O)(=O)c1cccc(CSc2ncccn2)c1 | nt | 0.2
C=CCNC(=S)N1CCC(C(=O)c2ccc(C)cc2)CC1 | -0.43 | -1.6
CN(C)S(=O)(=O)c1ccc(N2CCOCC2)c(C(=O)NCCC2=CCCCC2)c1 | nt | -2.2
CCN1C(=O)c2ccc(C(=O)Nc3c(C)cc(C)cc3C)cc2C1=O | -0.16 | 1.0
CN(C)S(=O)(=O)c1ccc(=O)n(CC(=O)NCc2ccc(-c3ccc(Cl)cc3)o2)c1 | nt | 0.1
O=C(OCC(=O)N1CCc2ccccc21)c1cccc(S(=O)(=O)N2CCCCC2)c1 | nt | 3.0
Cc1csc(NC(=O)C(CC(C)C)NS(=O)(=O)c2ccc3nc(C)sc3c2)n1 (stereo not given) | -1.6 | -1.3

Reprinted from the part before: two compounds, then new ones.
SMILES | KSHV LANA nucl | Ab BasE inh
O=C(OCC(=O)N1CCc2ccccc21)c1cccc(S(=O)(=O)N2CCCCC2)c1 | nt | 3.0
Cc1csc(NC(=O)C(CC(C)C)NS(=O)(=O)c2ccc3nc(C)sc3c2)n1 (stereo not given) | -1.6 | -1.3
CCC(C)N=C1NC(=O)C(CC(=O)NCc2ccccc2)S1 (stereo not given) | nt | 1.7
O=C(NC1CCCC1)C(c1cccnc1)N(CCc1ccccc1)C(=O)c1ccco1 (stereo not given) | 0.009 | 0.3
CSCCSc1nnc(-c2cccc(S(=O)(=O)N3CCCCC3)c2)o1 | nt | -1.6
CCc1cc(Cl)c(OC)c(C(=O)NCC2CCCN2CC)c1O (stereo not given) | -0.16 | -1.0
CCCCNC(=S)Nc1ccc2nc3n(c(=O)c2c1)CCCCC3 | -0.13 | -2.7
O=C1CCC(=O)N1NC(=O)C12CC3CC(CC(C3)C1)C2 | nt | -1.5
CC(C)(C)OC(=O)N=Nc1c(O)n(Cc2ccccc2)c2ccccc12 | nt | -1.1
Cc1ccnc(SCC(N)=O)c1C#N | nt | 0.4
COc1cc(S(=O)(=O)N(Cc2cccnc2)Cc2ccco2)ccc1-n1cnnn1 | -0.17 | 1.3
CCOC(=O)c1sc2nc(CN3CCCCC3)nc(NC3CC3)c2c1C | nt | -2.5
Brc1cnc(N2CCOCC2)nc1 | 1 | 0.1
CC1CCCCC1NC(=O)CSc1ccc(S(=O)(=O)N2CCCC2)cn1 (stereo not given) | nt | -1.2
CCn1c2ccccc2c2cc(NC(=O)C(C)C)ccc21 | nt | 2.2
Cc1cc(C(=O)O/N=C(\N)CSc2ncccc2C(F)(F)F)no1 | 1.1 | 0.0
Nc1ncc(N=Nc2ccc(SC(F)F)cc2)s1 | 1.1 | 2.9
Cc1c(Cl)cccc1Nc1nc(N)nc(CSC(=S)N(C)C2CCCCC2)n1 | nt | 3.3
CCCN(Cc1cccs1)C(=O)NCc1ccccc1 | 0.2 | -2.3
CC(C[N+](C)(C)C)OC(N)=O (stereo not given) | -0.006&0.13&0.64&-0.47 | -2.9&-1.1
N/C(=N\OC(=O)c1cccs1)c1ccccc1 | -0.056 | -0.6
O=C(Cc1ccc(Cl)cc1)Nc1cccc(-c2nc3ccccc3o2)c1 | nt | -3.7
Cc1cnn(CCCNC(=S)Nc2ccc(S(N)(=O)=O)cc2)c1 | 1.7 | -4.9
O=C(CN1C(=O)NC(Cc2c[nH]c3ccccc23)C1=O)c1ccc2c(c1)OCCO2 (stereo not given) | nt | 2.1
COc1cccc(/C(O)=C/c2nc3ccc(C(=O)N4CCN(C5CCCCC5)CC4)cc3[nH]c2=O)c1 | -0.27 | 0.6
CN(C)S(=O)(=O)c1ccc(=O)n(CC(=O)NCC2COc3ccccc3O2)c1 (stereo not given) | nt | 0.7
CC(=O)N(c1ccccc1)c1nc(/C=C(\C#N)C(=O)Nc2nccs2)cs1 | nt | -3.6
Cc1ccc(S(=O)(=O)c2nc(S(C)(=O)=O)sc2N2CCCCC2C)cc1 (stereo not given) | 0.57 | -1.5
O=C(c1ccccc1)N1CCN(C(=S)NCc2ccc3c(c2)OCO3)CC1 | nt | -0.1
O=C(ON(Cc1cccc(C(F)(F)F)c1)Cc1cccc(C(F)(F)F)c1)c1ccc(Cl)cc1 | 0.69 | nt
C=C(c1ccc(OC)cc1)c1ccc(OC)cc1 | 0.23 | 1.6
CCN(CC)S(=O)(=O)c1ccc(NC(=O)CSc2nnc(C)s2)cc1 | nt | 2.6

Source: PubChem BioAssay

Not all compounds are listed, so the mix of outcomes need not match the whole.
